From PubChem
VDR inh: Inhibitors of the vitamin D receptor (VDR): qHTS; Vitamin D3 receptor (Homo sapiens), P11473; VDR-SRC2-3 peptide fluorescence polarization, 2 h; Potency, µM, for the others: max response, negative = inhibition, actives largely listed as inhibitors; 400,000 compounds, 0.93% hits; active = well fitted inhibition curve with a large enough effect; inconclusive = small, poorly fitted or top-dose-only effect, or another doubt; inactive = no such curve, though single readings can be large or run the other way; also: series mostly up to about 120 µM
Target sequence (P11473 whole entry, looked up): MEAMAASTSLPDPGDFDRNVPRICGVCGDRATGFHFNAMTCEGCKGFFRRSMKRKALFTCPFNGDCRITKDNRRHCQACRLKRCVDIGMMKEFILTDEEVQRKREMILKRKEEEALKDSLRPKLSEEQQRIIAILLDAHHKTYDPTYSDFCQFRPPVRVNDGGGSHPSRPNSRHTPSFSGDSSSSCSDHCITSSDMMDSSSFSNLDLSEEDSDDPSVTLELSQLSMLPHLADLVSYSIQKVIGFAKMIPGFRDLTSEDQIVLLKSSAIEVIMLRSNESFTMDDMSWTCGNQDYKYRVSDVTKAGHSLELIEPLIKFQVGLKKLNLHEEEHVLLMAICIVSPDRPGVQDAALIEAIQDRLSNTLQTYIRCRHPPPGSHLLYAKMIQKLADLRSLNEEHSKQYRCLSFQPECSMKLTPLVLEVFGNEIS
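VDR–SRC2-3 interaction, FP format. Cmpds 23 nl via pintool, brief spin, 2 h ambient incubation.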
* hit, by the source's call; ? = inconclusive; & = joins results of further samples. % is scaled to controls: 0 for no effect and ±100 for the full control effect; potency is read from the fitted curve at half-maximal effect. Not all compounds are listed; count on the stated rates, not on these rows.

SMILES	VDR inh
Cc1cc(C(F)(F)F)n(-c2nc(C(=O)N/N=C/c3ccc(F)cc3)cs2)n1	-2.0%
COc1ccc(S(=O)(=O)N(C)c2ccc(C(N)=O)cc2)cc1	20.1%
O=[N+]([O-])C(C1CCS(=O)(=O)C1)C1CCS(=O)(=O)C1 (stereo not given)	14.2%
N#Cc1c(-c2ccc(F)cc2)cc(-c2cccnc2)nc1N	-3.7%
C=CCn1c(SCN2C(=O)c3ccccc3C2=O)nc2ccc(Cl)cc2c1=O	-11.8%
Cc1ccc(-c2nc(NCCN3CCOCC3)c3ccccc3n2)cc1	-10.6%
CC1CCCC(NC(=O)CSC2=Nc3ccccc3C3CC=NN23)C1C (stereo not given)	-21.3%
O=C(O)CN1C(=O)/C(=C/c2cccc(Cl)c2)Oc2ccccc21	3.7%
O=C(NCCCN1CCCC1=O)c1cccc(S(=O)(=O)Nc2ccc(Br)cc2)c1	-14.4%
CN(c1ccc(Cl)cc1)S(=O)(=O)c1nnc(NC(=O)C2CCCCC2)s1	5.4%
O=C(COC(=O)c1ccc(F)cc1)Nc1ccc2c(c1)OCO2	-15.0%
COc1ccccc1N1CCN(Cc2cnc3ccc(Cl)cn23)CC1	-7.2%
CCOC(=O)N1CCN(C(=O)CSc2nc3c([nH]c4ccccc43)c(=O)n2C)CC1	-12.5%
CCC(C)Nc1nnnc2c1sc1nc3c(cc12)COC(C)(C)C3 (stereo not given)	-9.6%
CC(=O)Nc1ccc(C(=O)N/N=C/c2ccccc2OC(=O)c2ccc(Cl)cc2)cc1	0.5%

An excerpt of these results, with values ahead of the structure:
VDR inh	Molecule
-15.0%	O=C(COC(=O)c1ccc(F)cc1)Nc1ccc2c(c1)OCO2
-21.3%	CC1CCCC(NC(=O)CSC2=Nc3ccccc3C3CC=NN23)C1C (stereo not given)

More compounds follow:
SMILES	VDR inh
CC1CCN(c2oc(-c3ccco3)nc2S(=O)(=O)c2ccccc2)CC1	-7.2%
Cc1ccc(-c2noc(CN(C(=O)c3ccc4c(c3)OCO4)C(C)C)n2)cc1	-6.2%
COc1ccc(OC(C)C(=O)N(C)Cc2nc(-c3ccccc3)no2)cc1 (stereo not given)	-10.6%
COc1cc(C(=O)N/N=C/c2sccc2C)cc(OC)c1OC	7.5%
Cc1cccn2c(=O)c(C=O)c(Nc3ccc(S(N)(=O)=O)cc3)nc12	-20.8%
Cc1ccc(CSc2nnc(SCC(=O)N/N=C/c3ccc(C(=O)O)cc3)s2)cc1	-0.9%
CCN(CC)CCCNC(=O)c1cn(-c2cccc(OC)c2)c(=O)c2ccccc12	-7.5%
Oc1ccccc1C=NCCN=Cc1ccccc1O	3.4%
CS(=O)(=O)c1ccc(Cl)c(NC(=O)CSc2n[nH]c(-c3cccs3)n2)c1	-17.5%
COC(=O)c1c(NC(=O)CCCOc2cccc(C)c2)sc2c1CCC(C)C2 (stereo not given)	3.1%
Cc1ccc(Cl)cc1NC(=O)C1CCN(c2nc3ccccc3n3cccc23)CC1	-5.3%
O=C(Nc1ccccc1Cl)N1CCC(CN2CCCCC2)CC1	4.5%
CCCOc1ccccc1OCC(=O)Nc1cc(Cl)ccc1-n1cncn1	16.2%
CNC1CC(N)[C@H](O)[C@@H](O[C@@H]2OC(CO)C3OC4(OC(C(N)CO)C(O)C(O)C4O)O[C@@H]3[C@H]2O)C1O (stereo not given in full)	0.9%
Cc1cc(=O)[nH]c(SCCOc2ccc3c(c2)CCC3)n1	-5.8%
COc1cccc(OC)c1/C=C/C(=O)NC1CCCCC1	-11.6%
Cn1nc(C(F)(F)F)c2cc(C(=O)O)sc21	6.2%
COc1ccc(C(CC(=O)N2CCOCC2)c2c(O)cc(OC)cc2OC)cc1 (stereo not given)	-12.9%&-0.4%
CSc1nc(S(=O)(=O)c2ccccc2)c(Cl)s1	-2.7%
CC(=O)c1ccc(NC(=O)Cn2cc(S(=O)(=O)Cc3cccc(Cl)c3)c3ccccc32)cc1	4.7%
Cc1ccc(S(=O)(=O)N(C)CC(=O)Nc2cccc3c2CCCC3)cc1	-5.7%
COCCCNC(=O)C1CC(=O)N(CCc2ccc(F)cc2)C1 (stereo not given)	0.1%
C/C(=N\NC(=O)c1ccccc1)C1C2C=CC(C2)C1(C)C (stereo not given)	-10.1%
O=C(Cn1nc(-c2ccc(Cl)cc2)ccc1=O)N1CCN(c2ccccc2)CC1	-3.5%
CC(=O)N(C)N(C)c1cc(C)nc(N)n1	2.7%
COc1ccc(N2CCN(C(=O)c3cc(C4CC4)nn3-c3ccccc3)CC2)cc1	-2.6%
CCN(CC)C(=O)c1ccc2c3c(cccc13)C(=O)N(CCc1ccc(OC)c(OC)c1)C2=O	-27.5%
CSc1ccc(C2NC(=O)c3c(sc4c3CCN(C)C4)N2)cc1 (stereo not given)	-7.0%
Cc1ccc(C)c(NC(=O)CN(C)C(=O)c2cccc(Oc3ccccc3)c2)c1	?
CNCCCOc1ccc(C)cc1Br	5.1%
COc1ccc(CC(=O)NNC(=O)c2cc(C)oc2C)cc1OC	-13.9%
COc1ccc(-c2noc(N3CCC(C(=O)Nc4cc(OC)c(OC)c(OC)c4)CC3)n2)cc1	-6.3%
Cc1cc(NC(=O)C(C)SCC(=O)Nc2cc(C(F)(F)F)ccc2N2CCCCC2)no1 (stereo not given)	6.4%
COc1c(OC(C)=O)c(=O)n2c3ccccc3c3ccnc1c32	-7.0%
COc1ccc(CNC(=O)CC23CC4CC(CC(C4)C2)C3)cc1OC	2.2%
CCOC(=O)Cn1nc(C)n(-c2ccc(Cl)cc2)c1=O	-22.1%
Cc1ccc(-c2ncccc2OC(=O)C23CC4CC(CC(C4)C2)C3)cc1	1.4%
Cc1ccc(-n2c(=O)c(C#N)cc3c(=O)n4ccccc4nc32)cc1C	15.6%
CCOC(=O)N1CCN(C(=O)c2cn(C)c3ccc(S(=O)(=O)N(C)C4CCCCC4)cc3c2=O)CC1	-15.8%
Cc1cccc2c1CC(C)(C)N/C2=C\C(N)=O	?
COc1ccc2c(c1OC)C(Cc1ccccc1)N1CCc3cc4c(cc3C1=C2)OCO4 (stereo not given)	31.6µM*
Cc1ccc(-c2nnc(-c3ccc4ccccc4c3)o2)cc1	2.8%
COCCNC(=O)C(NC(=O)C1CCCCC1)C(C)C (stereo not given)	4.8%
Cc1ccc(NC(=O)COC(=O)CNC(=O)c2ccc3ccccc3c2)c([N+](=O)[O-])c1	7.5%
O=C(O)c1ccc(NS(=O)(=O)c2cc(Cl)ccc2Cl)cc1	-4.8%
CCOc1ccc(-c2nnc(SCC(=O)Nc3cccc(Cl)c3C)o2)cc1	2.6%
Cc1nn(C)c(C)c1S(=O)(=O)NC1CCCC1	5.1%
CSc1ccccc1NC(=O)CN(C)C(=O)c1ccc2c(c1)OCCO2	-19.7%
CCOC(=O)C(C)n1cnc2c(nnn2Cc2ccc(C)cc2)c1=O (stereo not given)	13.1%
COc1ccc(Nc2nc(N)nc(CSc3nc(C)cc(C)n3)n2)cc1	9.9%
O=S(=O)(NCC(c1ccco1)N1CCCCC1)c1cccc(C(F)(F)F)c1 (stereo not given)	-4.4%
O=C(CCC(=O)Nc1ccccc1)NNC(=O)c1ccccc1Cl	-14.4%
CCOc1cc(Br)ccc1S(=O)(=O)NCc1ccccc1	-20.8%
CCOc1ccc(-n2c(C)nc3cc(C(=O)NCc4ccc5c(c4)OCO5)ccc32)cc1	-11.9%
CCc1nc(NCc2ccccc2)c(C#N)c2c1CCCC2	14.7%
COc1ccc(OC)c(CNc2ncnc3onc(C)c23)c1	5.5%
COc1cccc([C@@H]2CC=C(C(=O)O)[C@H](c3ccccc3F)N2S(=O)(=O)c2ccc(C)cc2)c1	5.5%
O=C(NCCN1CCN(c2ccccc2)CC1)Nc1ccccc1Br	-7.8%&-5.0%
CN(C(=O)COc1ccc([N+](=O)[O-])cc1)C1CCS(=O)(=O)C1 (stereo not given)	-14.4%
CCCSc1nc(N2CCOCC2)c2c(c1C#N)CC(C)(C)SC2	3.4%

Additional compounds
SMILES	VDR inh
COc1ccc(CC(=O)NNC(=O)CCC(=O)Nc2cc(C)ccc2C)cc1	89.1µM*
Cc1ccc(NCC(=O)N/N=C/c2cccn2C)cc1	-3.6%
CCn1cc(C(=O)NCc2ccc(C)cc2)c(=O)c2cc(S(=O)(=O)N(C)C)ccc21	13.8%
CCC(CC)N1CCN(S(=O)(=O)c2ccc(OC)cc2)CC1	10.9%
C/C(CC(=O)Nc1ccc(Cl)c(C(F)(F)F)c1)=N\NC(N)=S	-13.7%
COc1ccccc1CNC(=O)N1CCN(S(=O)(=O)c2ccc(Cl)cc2)CC1	-12.9%
CCOC(=O)COc1ccc(Br)cc1/C=C\c1[nH]c(=O)[nH]c(=O)c1[N+](=O)[O-]	22.4µM*
COc1ccc(-c2sc3cc4c(cc3c2C#Cc2cncn2C)OCO4)cc1	3.6%
Cc1cc(N2C(=O)CCC2=O)ccc1NC(=O)c1cccs1	-1.2%
CC(=O)Nc1nnc(SCC(=O)c2ccc(F)cc2)s1	1.5%
COc1cccc(NC(=O)Cc2ccc(NC(=O)N3CCCCc4ccccc43)cc2)c1	-3.9%
CCCn1nnc(NC(=O)C(C)Oc2ccc(Cl)cc2Cl)n1 (stereo not given)	4.9%
COc1cc(C(=S)N2CCOCC2)ccc1OS(=O)(=O)c1ccccc1[N+](=O)[O-]	-20.1%
CCCCCCCCCCCCCCCCCC(=O)OCC(O)CO (stereo not given)	1.6%
Cc1ccc(OCCCC(=O)Nc2sc3c(c2C(N)=O)CCC(C)C3)cc1 (stereo not given)	2.0%
O=C(OCC(=O)N1CCCc2ccccc21)c1cc(S(=O)(=O)N2CCOCC2)ccc1F	-1.9%
CCOc1ccc(C(C)=O)cc1COC(=O)c1cccnc1SC	-12.6%
COc1ccc(OC)c(CNC(=O)c2cc(-c3ccc(Cl)s3)nc3ccccc23)c1	-5.2%
C=CCn1c(SCC(=O)c2cc(C)n(C)c2C)nnc1-c1ccncc1	0.3%
Cc1sc2ncn(CC(=O)OCC(=O)NC(C)(C)C)c(=O)c2c1C	-7.8%
CN(C)c1nc(NN)nc(Nc2ccc(F)cc2)n1	-11.3%
Cc1ccc(N2C(=O)c3ccccc3C2C(=O)c2ccc(C)c(C)c2O)cc1 (stereo not given)	2.8%
O=C(Cn1c(=O)oc2cc(S(=O)(=O)NCc3ccccc3)ccc21)NCc1ccccc1Cl	-0.6%
CCOc1ccc(Cc2nnc(SCC(=O)Nc3ccc(OC)cc3)n(N)c2=O)cc1	4.7%
CC(C)n1cc(-c2nc(C(=O)NN)cs2)c(=O)n(Cc2ccccc2)c1=O	-18.5%
CC(C(=O)NCCN1C(=O)S/C(=C\c2cccnc2)C1=O)N1C(=O)c2ccccc2C1=O (stereo not given)	-1.1%
COc1ccc(CCNC(=O)c2ccc3c(c2)N=C(C)c2cc(C)ccc2S3)cc1OC	16.1%
CCN(Cc1ccccc1)c1nc2c(S(=O)(=O)c3ccccc3)nnn2c2ccc(Cl)cc12	4.9%
COc1ccc(C(C(=O)NC(C)(C)C)N(Cc2ccco2)C(=O)CCC(=O)Nc2cc(C)on2)cc1 (stereo not given)	4.9%
Cn1cc(-c2nnnn2-c2ccccc2)c(=O)c2ccccc21	-3.1%

Six entries from above, reformatted.
SMILES | VDR inh
CCN(Cc1ccccc1)c1nc2c(S(=O)(=O)c3ccccc3)nnn2c2ccc(Cl)cc12 | 4.9%
O=C(Cn1c(=O)oc2cc(S(=O)(=O)NCc3ccccc3)ccc21)NCc1ccccc1Cl | -0.6%
COc1ccc(CCNC(=O)c2ccc3c(c2)N=C(C)c2cc(C)ccc2S3)cc1OC | 16.1%
CN(C)c1nc(NN)nc(Nc2ccc(F)cc2)n1 | -11.3%
CC(C(=O)NCCN1C(=O)S/C(=C\c2cccnc2)C1=O)N1C(=O)c2ccccc2C1=O (stereo not given) | -1.1%
O=C(OCC(=O)N1CCCc2ccccc21)c1cc(S(=O)(=O)N2CCOCC2)ccc1F | -1.9%

Shown as a hit in VDR inh, among the entries above:
SMILES	VDR inh
COc1ccc2c(c1OC)C(Cc1ccccc1)N1CCc3cc4c(cc3C1=C2)OCO4 (stereo not given)	31.6µM*
COc1ccc(CC(=O)NNC(=O)CCC(=O)Nc2cc(C)ccc2C)cc1	89.1µM*
CCOC(=O)COc1ccc(Br)cc1/C=C\c1[nH]c(=O)[nH]c(=O)c1[N+](=O)[O-]	22.4µM*

Continued:
SMILES	VDR inh
O=C(COC(=O)CNC(=O)c1ccccc1)Nc1ccccc1Cl	9.4%
C=CCn1c(SCC(=O)OCC)nc(C(F)(F)F)cc1=O	5.0%
C=CCn1c(CNC(=O)c2ccco2)nnc1SCC(=O)c1ccccc1	12.0%
Cc1ccc(-c2nc(=S)c3c(n2Cc2cccnc2)CC(C)(C)OC3)cc1	8.2%
Clc1ccc(C(Cn2ccnc2)OCc2ccsc2Cl)c(Cl)c1 (stereo not given)	?
Cc1ccccc1NC(=O)Cn1nc(C(=O)O)c2ccccc2c1=O	1.9%
O=C(Nc1ccc2[nH]c3c(c2c1)CCCC3)c1ccco1	-1.4%
OC(CC#CCN1CCCCC1)(c1ccccc1)c1ccccc1	-8.8%
COc1ccc(/C=C/C(=O)N2CCN(c3ccccn3)CC2)c2ccccc12	-2.2%
COC(=O)c1c(NC(=O)CN2C(=O)C(=O)N(C(C)C)C2=O)sc(C)c1C	-3.2%
Cn1nc(C(=O)NC2CCCCC2)c2ccccc2c1=O	-0.4%
CCOC(=O)N1CCc2c(sc(NC(C)=O)c2C(N)=O)C1	0.1%
Cc1sc2ncnc(SCC(=O)N3CCCC3)c2c1C	9.2%
Cc1ccc(NC(=O)CSc2ccccc2)cc1S(=O)(=O)N1CCOCC1	-3.9%
CCc1cc2cc(C)cc(C)c2nc1SCC(=O)Nc1cc(C)on1	-5.1%
Oc1ccc(CN2CCc3ccccc3C2)c2cccnc12	2.0%
Nc1ccccc1/C=C/c1ccccc1N	-20.3%
CC1(C)CC(=O)c2cc(C(=O)Nc3ccc(Cl)cc3)c(=O)[nH]c2C1	-11.2%
O=C(NCc1ccccn1)c1cccc([N+](=O)[O-])c1	-15.0%
Cc1scc(C(=O)Nn2cnnc2)c1-c1ccccc1	-2.2%
